rRNA inh HTS = inhibits bacterial ribosomal RNA function over humanized ribosomes; AID 720706; E. coli WT GFP vs humanized-ribosome RFP mutants, fluorescence, 24 h; active compounds read low; DMSO median 0, no signal -100; 1.6% of 350,000 active; GFP signal change (wild-type ribosome), % (test concentration not listed);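 active = significant combined selectivity score with lowered wild-type GFP, culture density cut under 30%, mutant RFP and density less affected; inactive = any of these conditions unmet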; also: one replicate is shown; some compounds called inactive have numbers as strong as hits
MLL AF4-AF9 inh = MLL-AF4/AF9 protein interaction inhibition | P42568 | AID 651704 | 0.47% of 350,000 active | inhibition, % at 10 µM | AlphaScreen, biotin-AF4 peptide binding to FLAG-AF9;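 active = every replicate reaching a set inhibition limit, whatever the replicate mean, cut at about 25% in these data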;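 also: 0% = plate neutral control median and 100% = total signal loss; the record names both 10 and 1 µM as test concentration; the first replicate is given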
Target sequence (P42568 whole entry, looked up): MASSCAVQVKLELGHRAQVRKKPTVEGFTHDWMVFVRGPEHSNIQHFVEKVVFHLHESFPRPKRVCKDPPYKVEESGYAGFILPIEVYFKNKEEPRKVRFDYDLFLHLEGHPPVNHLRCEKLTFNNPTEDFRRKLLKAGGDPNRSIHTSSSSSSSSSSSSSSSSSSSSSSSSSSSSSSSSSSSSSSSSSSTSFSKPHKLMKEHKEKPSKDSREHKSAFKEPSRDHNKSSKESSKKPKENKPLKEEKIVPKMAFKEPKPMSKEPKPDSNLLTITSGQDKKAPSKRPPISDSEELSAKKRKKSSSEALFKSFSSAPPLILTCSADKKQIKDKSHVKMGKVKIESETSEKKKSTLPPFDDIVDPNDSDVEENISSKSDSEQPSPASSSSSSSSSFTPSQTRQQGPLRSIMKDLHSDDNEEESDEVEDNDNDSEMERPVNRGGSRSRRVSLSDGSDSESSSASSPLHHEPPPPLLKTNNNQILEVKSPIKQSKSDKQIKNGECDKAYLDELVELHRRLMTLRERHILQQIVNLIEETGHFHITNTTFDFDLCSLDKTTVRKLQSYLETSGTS
rRNA inh HTS OD600 = recorded beside rRNA inh HTS, whose call it bears; OD600 change, %; measured here: OD600 growth;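 optical density of the mix in the first replicate; 0 = DMSO median and -100 = no signal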
rRNA inh HTS RFP = recorded beside rRNA inh HTS, whose call it bears; RFP signal change, %; measured here: RFP humanized mutant strains;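 first replicate; 0 = DMSO median and -100 = no signal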
Active calls of the source: *. The list is partial; count on the stated rates, not on these rows.

SMILES	rRNA inh HTS	rRNA inh HTS OD600	rRNA inh HTS RFP	MLL AF4-AF9 inh
COc1ccc(NC(=O)N(C)C[C@@H]2Oc3c(NS(C)(=O)=O)cccc3C(=O)N([C@@H](C)CO)C[C@@H]2C)cc1	7	-1	1.3	-1.9
COc1ccc(NC(=O)Nc2ccc3c(c2)C(=O)N([C@@H](C)CO)C[C@H](C)[C@H](CN(C)C)O3)cc1	3	7	1.3	-0.6
O=S1(=O)CC(N2CCCC2)CN1Cc1cn(Cc2cccc(Cl)c2)nn1 (configuration not stated)	8	14	-2.7	-2.7
O=C(NCC1CC1)[C@H]1[C@H](CO)[C@H]2Cn3c(ccc(/C=C/c4ccccc4)c3=O)[C@@H]1N2C(=O)C1CCC1	-4	-6	2.3	-14
C[C@H]1CN([C@@H](C)CO)C(=O)c2cc(-c3ccccc3F)cnc2O[C@@H]1CN(C)C(=O)c1ccccn1	1	2	-2.7	0.4
CC(C)CC#Cc1ccc2c(c1)O[C@H](CN(C)C(=O)C1CCC1)[C@@H](C)CN([C@H](C)CO)S2(=O)=O	-2	-15	7.5	2.6
CCCNC(=O)C[C@H]1CC[C@@H]2[C@H](COc3ccc(NC(=O)CC)cc3C(=O)N2C)O1	5	9	-1.7	0.3
O=C(C[C@@H]1C[C@H]2c3cc(NC(=O)C4CCOCC4)ccc3O[C@H]2[C@@H](CO)O1)NCc1ccncc1	2	3	-1.8	-1.2
C[C@@H]1CN([C@@H](C)CO)C(=O)c2cc(-c3cccc(F)c3)cnc2O[C@@H]1CN(C)C(=O)C1CCC1	-1	3	1.7	-5.7
CCCNC(=O)NC[C@@H]1[C@@H](c2ccc(C3=CCCC3)cc2)[C@@H](CO)N1C(=O)CC	0	2	1.8	-0.5
CCC(=O)Nc1ccc2c(c1)OC[C@@H](C)N(C(=O)C1CCC1)C[C@H](C)[C@@H](OC)CN(C)C2=O	0	1	-0.8	-1.3
COc1cc(F)ccc1-c1csc(C(C)(O)c2ccccc2)n1 (configuration not stated)	-50	-76	-23	-1.0
C[C@@H]1CCCCO[C@H](CN(C)C(=O)Nc2ccccc2)[C@H](C)CN([C@H](C)CO)C(=O)c2cc(NS(=O)(=O)c3cccs3)ccc2O1	3	6	0.6	1.4
CC(=NNC(N)=O)C1=C(O)C(C(C)C)NC1=O (configuration not stated)	14	3	1.8	-1.4
Cc1ccccc1S(=O)(=O)NC(=O)C1(C)CCN1C(=O)Cc1cc(F)ccc1F (configuration not stated)	10	13	-0.6	-3.4
COc1ccc(NC(=O)N(C)C[C@@H]2Oc3ncc(-c4cccc(F)c4)cc3C(=O)N([C@H](C)CO)C[C@@H]2C)cc1	-2	-10	-2.4	0.6
C[C@H](CO)N1C[C@H](C)[C@@H](CN(C)Cc2ccc3c(c2)OCO3)Oc2ccc(NC(=O)Nc3ccccc3)cc2C1=O	1	-10	2.1	6.0
CC(C)CC#Cc1ccc2c(c1)O[C@@H](CN(C)C(=O)NC1CCCC1)[C@H](C)CN([C@@H](C)CO)S2(=O)=O	0	-23	-0.2	3.6
COC(=O)[C@]12C[C@H](CC(=O)N3CCN(C(=O)C4CC4)CC3)C(=O)N(Cc3ccccc3)C1=C[C@H](C1CCCC1)O[C@@H]2C	2	-10	1.2	0.9
CCC(=O)N1[C@H](CO)[C@@H](c2ccccc2)[C@H]1CN(C(C)C)S(C)(=O)=O	2	6	-2.8	-1.9
CC(C)(C)NC(=O)C(c1cc2ccccc2o1)n1c(=O)c(-c2cc3ccccc3[nH]2)nc2ccccc21 (configuration not stated)	17	23	4.6	-58
CCS(=O)(=O)NCC[C@H]1CC[C@H](NC(=O)Nc2ccccc2)[C@@H](CO)O1	2	-1	1.3	-1.9
Cc1ccc(CN2CC(N3CCC(Cc4ccccc4)CC3)CS2(=O)=O)cc1 (configuration not stated)	-3	-28	6.5	-1.4
CC(C)NC(=O)N(C)C[C@H]1Oc2ccc(NS(C)(=O)=O)cc2C(=O)N([C@@H](C)CO)C[C@H]1C	-2	4	-2.7	-1.1
COCC(=O)N1CC[C@@H]2[C@H]1c1cc(-c3cccc(OC)c3)ccc1N(C)[C@@H]2CO	-2	-6	0.2	-0.9
COCC(=O)N(C)C[C@@H]1Oc2ncc(C#Cc3cccnc3)cc2C(=O)N([C@H](C)CO)C[C@@H]1C	7	8	-2.0	-6.3
C[C@H]1CN([C@@H](C)CO)C(=O)c2cc(/C=C/c3ccccc3)cnc2O[C@H]1CN(C)Cc1cccc(C(=O)O)c1	-7	20	-3.9	-4.6
O=c1[nH][nH]c2c1[C@@H](c1ccc(F)cc1)O[C@H](C1CCCCC1)C2	-1	-5	-0.5	-2.8
C#CCOCCOCCOCCNc1nc(N2CCN(C(=O)Cn3cc(CC(C)O)nn3)CC2)nc(N2CCN(C(=O)[C@H](CCCCN)n3cc(CC(C)O)nn3)CC2)n1 (some centres not stated)	7	7	-1.0	-4.4
CCCCn1nnnc1C(c1cc2ccccc2o1)N(CCN(C)C)Cc1ccccc1 (configuration not stated)	-46	-76	-12	6.5
CCCNC(=O)N1[C@H](CO)[C@H](c2ccccc2)[C@@H]1CNC(=O)C1CCCC1	4	9	-1.8	-2.3
O=C(OCc1ccccc1)N1CCC2CC1c1c(-c3ccc(C(F)(F)F)cc3)cccc12 (configuration not stated)	9	22	-1.9	-1.9
O=C(C1CCCCC1)N1CC2(C1)[C@@H](c1ccccc1)[C@H](CO)N2Cc1ccccc1F	-10	-20	2.5	-12
C#CCNC(=O)C[C@@H]1C[C@@]2(C(=O)OCC)CCCC=C2N(CCC2=CCCCC2)C1=O	-26	-39	-12	-3.3
CC(C)NC(=O)N(C)C[C@@H]1Oc2cc(-c3ccccc3)ccc2S(=O)(=O)N([C@@H](C)CO)C[C@H]1C	-3	-14	-3.2	1.2
C[C@@H]1CCCCO[C@@H](CN(C)Cc2ccc(C(F)(F)F)cc2)[C@H](C)CN([C@@H](C)CO)C(=O)c2cc(N(C)C)ccc2O1	0	-6	-0.9	32*
CNC[C@@H]1Oc2c(NC(=O)C3CCOCC3)cccc2C(=O)N([C@H](C)CO)C[C@@H]1C	2	3	0.8	-23
CC(=O)NC(c1ccc(F)c(F)c1)c1nc(-c2cccc(C(=O)O)c2)cs1 (configuration not stated)	-6	-16	-2.2	-2.3
CCCNC(=O)N1CC2(C1)[C@H](c1ccccc1)[C@@H](CO)N2Cc1ccc(Cl)cc1	-1	-4	0.9	0.6
C[C@H]1CN([C@@H](C)CO)C(=O)c2cccc(NC(=O)NC3CCCCC3)c2O[C@H]1CN(C)S(=O)(=O)c1ccc(Cl)cc1	-3	-25	-3.9	0.0
COc1ccc(-c2ccc3c(c2)[C@H]2[C@H](CCN2C(=O)C2CCCCC2)[C@H](CO)N3C)cc1	-40	-53	26	-2.4
C[C@H]1CN([C@@H](C)CO)C(=O)c2cccc(NC(=O)C3CCOCC3)c2O[C@@H]1CN(C)C(=O)Nc1ccccc1	-1	4	-2.6	0.6
COc1ccc2c3c(n(C)c2c1)[C@@H](CO)N(C(=O)Nc1ccc(F)cc1)CC31CN(CC2CCOCC2)C1	0	2	-0.9	2.7
Cc1noc(C)c1NC(=O)N(C)C[C@@H]1OCCCC[C@H](C)Oc2ccc(NC(=O)c3ccncc3)cc2C(=O)N([C@H](C)CO)C[C@@H]1C	1	0	-3.1	-3.9
O=C(C[C@H]1CC[C@@H]2[C@H](COC[C@H](O)CN2C(=O)c2ccc(F)cc2)O1)Nc1ccc(-c2ccccc2)cc1	-45	-76	-0.2	4.1
COc1cccc(S(=O)(=O)N[C@H]2CC[C@@H](CC(=O)NCc3ccc(Cl)cc3)O[C@H]2CO)c1	-7	-6	-1.8	-0.4
CN1CCN(C2CN(Cc3cn(Cc4ccc(C(F)(F)F)cc4)nn3)S(=O)(=O)C2)CC1 (configuration not stated)	15	3	-2.6	0.4
O=C(Nc1cc(C(F)(F)F)ccc1F)C1Cc2c(-c3ccccc3Oc3ccccc3)ccnc2O1 (configuration not stated)	8	24	0.1	0.6
C[C@@H]1CCCCO[C@H](CN(C)S(=O)(=O)c2ccccc2)[C@@H](C)CN([C@H](C)CO)C(=O)c2cc(NC(=O)C3CCCCC3)ccc2O1	-1	-8	-1.4	-1.5
Cc1ccc(S(=O)(=O)N(C)C[C@@H]2OCc3ccccc3-c3ccccc3C(=O)N([C@@H](C)CO)C[C@H]2C)cc1	-1	-13	8.6	16
C[C@H]1CN([C@@H](C)CO)C(=O)CCCn2cc(nn2)CO[C@@H]1CN(C)Cc1ccc(C(=O)Nc2ccccc2N)cc1	1	-2	-1.6	5.0
C[C@@H]1CN([C@@H](C)CO)S(=O)(=O)c2ccc(-c3ccccc3F)cc2O[C@@H]1CN(C)Cc1cncnc1	-7	-13	4.9	5.1
O=C(c1ccccc1F)N1CC[C@@H]2[C@H](CO)Nc3ccc(Br)cc3[C@@H]21	-5	-5	1.8	3.1
O=C(C[C@H]1CC[C@H]2[C@@H](COC[C@H](O)CN2Cc2ccccc2F)O1)N1CCc2ccccc2C1	-5	-4	0.8	0.5
C[C@@H](O)C#Cc1cnc2c(c1)C(=O)N([C@@H](C)CO)C[C@H](C)[C@@H](CN(C)C(=O)CN1CCOCC1)O2	3	5	-2.4	-0.9
CN1C(=O)c2cc(NC(=O)C3CC3)ccc2OC[C@@H]2O[C@H](CC(=O)NCc3ccccc3F)CC[C@@H]21	0	7	0.3	-12
CCC(=O)Nc1ccc2c(c1)C(=O)N(C)C[C@@H](OC)[C@@H](C)CN(C(C)=O)[C@H](C)CO2	0	0	-0.8	-3.6
CC(C)c1[nH]nc2c1C(c1cccc(C(F)(F)F)c1)NC2=O (configuration not stated)	-7	-18	-2.8	1.1
CCCCCCCN(c1ccccc1)C1C[C@H]2CCCC(=O)N3CC[C@@H](C1)[C@@H]23 (some centres not stated)	-10	-19	13	6.5
C[C@H](CO)N1C[C@H](C)[C@@H](CN(C)C(=O)Nc2ccc(C(F)(F)F)cc2)Oc2ccc(NC(=O)C3CC3)cc2CC1=O	3	-1	-0.2	2.3

Filtered by structure, the entries above containing an NH in an aromatic ring.
SMILES	rRNA inh HTS	rRNA inh HTS OD600	rRNA inh HTS RFP	MLL AF4-AF9 inh
CC(C)(C)NC(=O)C(c1cc2ccccc2o1)n1c(=O)c(-c2cc3ccccc3[nH]2)nc2ccccc21 (configuration not stated)	17	23	4.6	-58
O=c1[nH][nH]c2c1[C@@H](c1ccc(F)cc1)O[C@H](C1CCCCC1)C2	-1	-5	-0.5	-2.8
CC(C)c1[nH]nc2c1C(c1cccc(C(F)(F)F)c1)NC2=O (configuration not stated)	-7	-18	-2.8	1.1

Remaining list, next part
SMILES	rRNA inh HTS	rRNA inh HTS OD600	rRNA inh HTS RFP	MLL AF4-AF9 inh
C[C@@H]1CN([C@@H](C)CO)S(=O)(=O)c2ccc(-c3ccc(C(=O)N(C)C)cc3)cc2O[C@H]1CN(C)C	-3	-11	-0.7	-3.0
CNC[C@@H]1Oc2ccc(NC(=O)CCN3CCOCC3)cc2CC(=O)N([C@@H](C)CO)C[C@H]1C	3	5	-4.0	-8.2
COc1ccc2c3c(n(C)c2c1)[C@@H](CO)N(C(=O)CC1CC1)CC31CN(C(=O)C2CC2)C1	1	3	-0.5	-0.8
C[C@@H]1CN([C@H](C)CO)C(=O)c2cc(C3=CCCCC3)cnc2O[C@H]1CN(C)C(=O)Cc1cccnc1	-4	3	-3.5	-0.8
Cc1ccc(S(=O)(=O)N2[C@@H](c3ccc(Br)cc3)C(C(=O)O)=CC[C@H]2c2ccc(Cl)cc2)cc1	-7	-27	-11	-2.7
COc1ccc(NC(=O)C2(C)Cc3c(-c4cccc(NC(C)=O)c4)ccnc3O2)cn1 (configuration not stated)	-3	-10	0.6	-1.8
O=C(C[C@H]1CC[C@H]2[C@@H](COC[C@@H](O)CN2S(=O)(=O)c2ccc(F)cc2)O1)NCc1ccc(Cl)c(Cl)c1	-16	-42	-5.1	1.6

Among those listed so far, ten contain an aryl methoxy group.
SMILES	rRNA inh HTS	rRNA inh HTS OD600	rRNA inh HTS RFP	MLL AF4-AF9 inh
COc1ccc(NC(=O)N(C)C[C@@H]2Oc3c(NS(C)(=O)=O)cccc3C(=O)N([C@@H](C)CO)C[C@@H]2C)cc1	7	-1	1.3	-1.9
COc1ccc(NC(=O)Nc2ccc3c(c2)C(=O)N([C@@H](C)CO)C[C@H](C)[C@H](CN(C)C)O3)cc1	3	7	1.3	-0.6
COc1cc(F)ccc1-c1csc(C(C)(O)c2ccccc2)n1 (configuration not stated)	-50	-76	-23	-1.0
COc1ccc(NC(=O)N(C)C[C@@H]2Oc3ncc(-c4cccc(F)c4)cc3C(=O)N([C@H](C)CO)C[C@@H]2C)cc1	-2	-10	-2.4	0.6
COCC(=O)N1CC[C@@H]2[C@H]1c1cc(-c3cccc(OC)c3)ccc1N(C)[C@@H]2CO	-2	-6	0.2	-0.9
COc1ccc(-c2ccc3c(c2)[C@H]2[C@H](CCN2C(=O)C2CCCCC2)[C@H](CO)N3C)cc1	-40	-53	26	-2.4
COc1ccc2c3c(n(C)c2c1)[C@@H](CO)N(C(=O)Nc1ccc(F)cc1)CC31CN(CC2CCOCC2)C1	0	2	-0.9	2.7
COc1cccc(S(=O)(=O)N[C@H]2CC[C@@H](CC(=O)NCc3ccc(Cl)cc3)O[C@H]2CO)c1	-7	-6	-1.8	-0.4
COc1ccc2c3c(n(C)c2c1)[C@@H](CO)N(C(=O)CC1CC1)CC31CN(C(=O)C2CC2)C1	1	3	-0.5	-0.8
COc1ccc(NC(=O)C2(C)Cc3c(-c4cccc(NC(C)=O)c4)ccnc3O2)cn1 (configuration not stated)	-3	-10	0.6	-1.8

Assay outcomes: PubChem BioAssay, Broad Institute
